AmpC nodet inh: inhibitors of E. coli AmpC beta-lactamase without detergent | AmpC nitrocefin hydrolysis, absorbance 480 nm, no detergent; potencies from a single point are estimates | AID 585 | actives 1.8% (n = 71,000) | Potency, µM (top dose mostly 28.7 µM), inactives show top-dose activity change, negative = inhibition | P00811; active = falling curve, for most hits resting on a single point; inconclusive = weak or doubtful change; inactive = flat or rising curve; note: % of control where 0% means no effect; about half of the hits show no inhibition at the top dose; a quarter of the inactives give rising signals
Target sequence (P00811 whole entry, looked up): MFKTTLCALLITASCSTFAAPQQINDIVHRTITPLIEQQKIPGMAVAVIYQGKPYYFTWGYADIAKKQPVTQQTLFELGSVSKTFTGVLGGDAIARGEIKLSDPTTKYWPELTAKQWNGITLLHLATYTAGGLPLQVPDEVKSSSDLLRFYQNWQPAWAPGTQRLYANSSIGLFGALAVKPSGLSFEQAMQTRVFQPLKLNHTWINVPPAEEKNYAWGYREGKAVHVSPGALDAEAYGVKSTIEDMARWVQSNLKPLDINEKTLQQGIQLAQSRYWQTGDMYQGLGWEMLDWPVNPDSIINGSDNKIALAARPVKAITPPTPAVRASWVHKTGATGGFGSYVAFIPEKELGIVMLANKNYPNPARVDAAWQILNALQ
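Enzyme, pH 7.0 phosphate. Compound titrations were pre-incubated with AmpC for 15 min at room temperature before nitrocefin (stock 800 uM) addition; product formation was recorded at 480 nm every 20 s for 4 min.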
The depositor's hits bear a star; ? = inconclusive; & = joins results of further samples; ! = repeats disagree; [ ] = remark or other dose. Potency is the fitted concentration of half-maximal effect.

Sample of the layout:
structure,AmpC nodet inh
Cc1noc(C)c1C(=O)N1CCC2(CCN(Cc3ccccc3)CC2)CC1,25%
Cn1c(=O)[nH]c(=O)c2c1nc(N1CCNCC1)n2CCOc1ccccc1,-3%
COc1ccc2[nH]cc(CCNc3ncnc4ccc(-c5c(C)noc5C)cc34)c2c1,2%
CCc1ccc(NC(=O)CS(=O)CC(=O)NC(C)CCc2ccco2)cc1 (centres undefined),?
COc1ccc(N2C(=O)CC(N3CCN(c4ccc(S(=O)(=O)N5CCCC5)cc4)CC3)C2=O)cc1 (centres undefined),118%
CC1CCCN(C(=O)CSc2nnc(-c3ccc(S(=O)(=O)N4CCOCC4)cc3)n2C)C1 (centres undefined),46%
O=C(NCCc1ccccn1)C1CC(=O)N(Cc2ccccc2Cl)C1 (centres undefined),4%
Cc1ccc(S(=O)(=O)CCc2nc3ccccc3n2CCC#N)cc1,28%
O=C(NCc1ccc(F)cc1)c1noc2c1CCCC2,2%
CCC(C)(C)NC(=O)CN(C(=O)c1snc(C(N)=O)c1N)c1ccc2c(c1)OCO2,16%
Cc1cc(NC(=O)c2ccc(Cl)cc2)no1,2%
CSC1=NP(=S)(SC)N2CCCC2=C1C#N (centres undefined),-2%
CCOC(=O)c1c(C)nc2sccn12,8%
O=C(CCN1CCN(c2ccccc2)CC1)Nc1nccs1,0%
COCc1cc(=O)[nH]c(Nc2nc(C)c3ccc(C)cc3n2)n1,-1%
CCOc1ccc(-c2cc(C(=O)N3CCN(C)CC3)c3ccccc3n2)cc1,136%
Cn1c(=O)c2[nH]c(SCc3ccccn3)nc2n(C)c1=S,-6%[5.75 µM]
FC(F)C(F)(F)C1=CC(c2ccccc2)=NCCN1,5%
O=C(c1cccc(F)c1)N1CCC2(CC1)CN(c1ncccn1)C2,69%
Cc1nc(/C=[N+](\[O-])C(C)(C)/C=N/O)n(O)c1C,-10%
C/C(=C\c1ccccc1)CN1CCN(c2ccccc2)CC1,21%
COc1cc(NC(=O)c2ccc3c(=O)n(Cc4ccco4)c(=S)[nH]c3c2)cc(OC)c1OC,-2%
CCOC(=O)c1c(-c2ccc(C)cc2C)csc1NC(=O)CSc1nnnn1C,61%
Cc1nc2cnc(N(C)C)nc2n(C[C@H]2CCCO2)c1=O,22%
CCSc1nc(-c2ccco2)ccc1C#N,-18%
COc1cc(S(C)=O)ccc1-c1nc2ncccc2[nH]1 (centres undefined),0%[12.8 µM]
O=C(CN(Cc1ccc2c(c1)OCO2)C(=O)CSc1nc2ccccc2o1)NC1CCCCC1,-2%

Results (from the top)
structure,AmpC nodet inh
Cc1noc(C)c1C(=O)N1CCC2(CCN(Cc3ccccc3)CC2)CC1,25%
Cn1c(=O)[nH]c(=O)c2c1nc(N1CCNCC1)n2CCOc1ccccc1,-3%
COc1ccc2[nH]cc(CCNc3ncnc4ccc(-c5c(C)noc5C)cc34)c2c1,2%
CCc1ccc(NC(=O)CS(=O)CC(=O)NC(C)CCc2ccco2)cc1 (centres undefined),?
COc1ccc(N2C(=O)CC(N3CCN(c4ccc(S(=O)(=O)N5CCCC5)cc4)CC3)C2=O)cc1 (centres undefined),118%
CC1CCCN(C(=O)CSc2nnc(-c3ccc(S(=O)(=O)N4CCOCC4)cc3)n2C)C1 (centres undefined),46%
O=C(NCCc1ccccn1)C1CC(=O)N(Cc2ccccc2Cl)C1 (centres undefined),4%
Cc1ccc(S(=O)(=O)CCc2nc3ccccc3n2CCC#N)cc1,28%
O=C(NCc1ccc(F)cc1)c1noc2c1CCCC2,2%
CCC(C)(C)NC(=O)CN(C(=O)c1snc(C(N)=O)c1N)c1ccc2c(c1)OCO2,16%

The list goes on:
structure,AmpC nodet inh
Cc1cc(NC(=O)c2ccc(Cl)cc2)no1,2%
CSC1=NP(=S)(SC)N2CCCC2=C1C#N (centres undefined),-2%
CCOC(=O)c1c(C)nc2sccn12,8%
O=C(CCN1CCN(c2ccccc2)CC1)Nc1nccs1,0%
COCc1cc(=O)[nH]c(Nc2nc(C)c3ccc(C)cc3n2)n1,-1%
CCOc1ccc(-c2cc(C(=O)N3CCN(C)CC3)c3ccccc3n2)cc1,136%
Cn1c(=O)c2[nH]c(SCc3ccccn3)nc2n(C)c1=S,-6%[5.75 µM]
FC(F)C(F)(F)C1=CC(c2ccccc2)=NCCN1,5%
O=C(c1cccc(F)c1)N1CCC2(CC1)CN(c1ncccn1)C2,69%
Cc1nc(/C=[N+](\[O-])C(C)(C)/C=N/O)n(O)c1C,-10%

The list continues:
structure,AmpC nodet inh
C/C(=C\c1ccccc1)CN1CCN(c2ccccc2)CC1,21%
COc1cc(NC(=O)c2ccc3c(=O)n(Cc4ccco4)c(=S)[nH]c3c2)cc(OC)c1OC,-2%
CCOC(=O)c1c(-c2ccc(C)cc2C)csc1NC(=O)CSc1nnnn1C,61%
Cc1nc2cnc(N(C)C)nc2n(C[C@H]2CCCO2)c1=O,22%
CCSc1nc(-c2ccco2)ccc1C#N,-18%
COc1cc(S(C)=O)ccc1-c1nc2ncccc2[nH]1 (centres undefined),0%[12.8 µM]
O=C(CN(Cc1ccc2c(c1)OCO2)C(=O)CSc1nc2ccccc2o1)NC1CCCCC1,-2%
CCC(CO)N=CC1=C(O)CC(C)(C)CC1=O (centres undefined),-16%
O=C(Nc1ccccc1)N1CC2(CCN(S(=O)(=O)c3ccccc3)CC2)C1,10%
Cc1ccc(S(=O)(=O)Nc2cc(C)nn2-c2ccccc2)cc1,0%

The list goes on:
structure,AmpC nodet inh
O=C(COC(=O)C1=COCCO1)Nc1ccccc1Oc1ccccc1,9%
CCc1nnc(NC(=O)c2ccc(N(C)S(=O)(=O)c3ccccc3)cc2)s1,6%
CC1=C(C(=O)NCCN2CCOCC2)C2(CCC(C)CC2)OC1=O (centres undefined),15%
O=C(Cn1ncc2c1-c1ccccc1OC2)N(Cc1ccco1)C1CCCCC1,81%
COc1ccc(C/C(O)=C(\C#N)c2nc3ccccc3s2)cc1,-11%
Cc1cccc(OCC(=O)Nc2ccc(S(=O)(=O)N3CCCC3)cc2)c1,-22%
Cc1ccc(-c2c3c(=O)n(C)c(=O)n(C)c3cn2Cc2cccnc2)cc1,46%
Nn1c(SCC(=O)NC2CCCCC2)nnc1-c1ccccc1,13%
COC(=O)N1[C@H](Cc2ccccc2)C=C[C@]1(C)C(=O)NCc1ccc(N(C)C)cc1,95%
COc1ccc2[nH]c(=O)c3c(c2c1)OC(C)(C)C=C3,4%&7%

Brought forward from above: 2 compounds, then new ones.
structure,AmpC nodet inh
COC(=O)N1[C@H](Cc2ccccc2)C=C[C@]1(C)C(=O)NCc1ccc(N(C)C)cc1,95%
COc1ccc2[nH]c(=O)c3c(c2c1)OC(C)(C)C=C3,4%&7%
COc1ccc(CNc2ncnc3ccc(-c4cccc(NS(C)(=O)=O)c4)cc23)c(OC)c1,16%
O=C(Nc1ccc(S(=O)(=O)N2CCOCC2)cc1)c1ccco1,-7%
O=S(=O)(NCc1ccco1)N1CCCCCC1,5%
CN1C(=O)C2(OCC(COc3ccc(Cl)cc3)O2)c2ccccc21 (centres undefined),14%
Cc1cccc(N2CCN(CCNC(=O)c3cc4c(s3)CS(=O)(=O)C4)CC2)c1C,63%
Cc1ccc2[nH]c(=O)c(CN(C)C(=O)c3ccccn3)cc2c1,-2%
Cc1nn(-c2ccccc2)c2sc(C(=O)N3CCCCC3)cc12,78%
Cc1cc(NC(c2cccnc2)c2ccc3cccnc3c2O)no1 (centres undefined),-1%
CCC(CC)C(=O)Nc1c2c(nn1-c1ccc(OC)cc1)CS(=O)(=O)C2,-5%
[N-]=[N+]=CC(=O)COC(=O)c1ccccc1,1%[5.75 µM]

(listing goes on)
structure,AmpC nodet inh
COc1ccc(C(=O)OCC(=O)c2cc(OC)ccc2OC)c(OC)c1,62%
COc1ccccc1CNC(=O)c1ccc(S(=O)(=O)N2CCCC2)cc1,0%
C=C(C)COc1ccc(-c2n[nH]c(C)c2-c2ccccc2OC)c(O)c1,-2%
CCOC(=O)N1CCC(Nc2c(NCCN3CCN(c4cccc(Cl)c4)CC3)c(=O)c2=O)CC1,4µM*[single pt active]
Cc1c(NC(=O)c2c(F)cccc2F)c(=O)n(-c2ccccc2)n1C,-8%
CS/C(=N\S(=O)(=O)c1cccs1)NC(=O)CSc1nc2ccccc2s1,13µM*
O=c1c(O)c(-c2ccc(O)c(O)c2)oc2cc(O)ccc12,13µM*!
COc1ccccc1N1CCN(c2ccc(-c3ccccc3)nn2)CC1,72%
Cc1cc(C)cc(N)c1,-15%
CS(=O)(=O)Nc1c(O)ccc2c1CCC[C@H]2C1=NCCN1,20%

Continuation.
structure,AmpC nodet inh
O=C(CN1C(=O)COc2ccccc21)c1cccc(Cl)c1,8%
NS(=O)(=O)c1cc(C(=O)O)c(O)c2ccccc12,-2%[5.75 µM]
COc1ccccc1CNC(=O)C1CCCN(S(=O)(=O)c2c(C)[nH]c(=O)[nH]c2=O)C1 (centres undefined),3%
Cc1ccc(-n2nc(C)c3c(-c4cccs4)c(C#N)c(N)nc32)cc1,-10%
CC(Cl)(Cl)Cl,-15%
Cn1nnnc1SCC(=O)c1ccco1,-5%
COC(=O)C(CC(=O)c1ccc(Br)cc1)n1ccnc1 (centres undefined),7%
O=C(Nc1cccnc1)Nc1ccc(F)c(Cl)c1,-20%
COc1ccc(-c2ccc(-c3nnc(-c4ccncc4)o3)cc2)cc1,50%
COc1ccc(Cc2nnc(SCC(=O)Nc3ncc(C)s3)o2)cc1,7%

Next section:
structure,AmpC nodet inh
Cc1cc(C(F)(F)F)c2sc(N)nc2n1,-13%
O=c1c2ccccc2nnn1CSc1nc2sc3c(c2c(=O)n1CC1CCCO1)CCC3 (centres undefined),80%
COc1ccccc1CNC(=O)CCn1c(=O)[nH]c2ccsc2c1=O,-5%
Cc1ccc(Nc2cc(C)nc3nc(C)nn23)cc1,8%
CCC(C)(C)n1nnnc1C(c1cccc(C#N)c1)N1CCN(c2cccc(C)c2C)CC1 (centres undefined),15%
O=C1C(=O)N(CCCn2ccnc2)C(c2cccnc2)/C1=C(/O)c1ccc(F)cc1 (centres undefined),11%
CN(c1ccc(C(=O)Nc2cccnc2)cc1)S(C)(=O)=O,12%
CC(NC(=O)c1ccccc1Cl)C1COc2ccccc2O1 (centres undefined),-8%
COc1ccc(S(=O)(=O)NC(CC(=O)N2CCC3(CC2)OCCO3)c2ccco2)cc1 (centres undefined),17%
OC1CCCCC1Sc1nc2ccccc2s1 (centres undefined),14%

Part of the list above in order of length of the SMILES, high to low:
structure,AmpC nodet inh
COc1ccccc1CNC(=O)CCn1c(=O)[nH]c2ccsc2c1=O,-5%
CN(c1ccc(C(=O)Nc2cccnc2)cc1)S(C)(=O)=O,12%
Cc1ccc(Nc2cc(C)nc3nc(C)nn23)cc1,8%

Continued.
structure,AmpC nodet inh
O=C1NCCN1C(=O)C12CC3CC(CC(C3)C1)C2,8%
O=c1cc(-c2ccccc2)nc2nc(SCc3ccccc3)[nH]n12,-17%
Cc1cc2nc(SCCN3CCCC3)[nH]c2cc1C,6%
O=C1NC(c2cccc([N+](=O)[O-])c2)=CCN1c1ccccc1O,10%&5%
O=C1CC(N2CCOCC2)C(=O)N1c1ccccc1Cl (centres undefined),37%
CC(C)(S)[C@H](N)C(=O)O,1%[5.75 µM]
Cn1ccc2cc(NC(=O)Nc3cccnc3)ccc21,-16%
COC(=O)c1cc(C(=O)OC)cc(-n2c(C)cc(C(=O)CC#N)c2C)c1,48%
COc1ccc(Oc2ncc3ncc(=O)n(Cc4cccs4)c3n2)cc1,60%
CCOC(=O)NC1(C(F)(F)F)NC(=O)N(C2CCCCC2)C1=O (centres undefined),13%

(list continues)
structure,AmpC nodet inh
CCNc1ncc2nc(-c3ccc(OC)cc3)c(=O)n(CCc3ccccc3)c2n1,-7%
COCCOC(=O)c1c(C)oc2ccc(OCc3cc(C(=O)OC)oc3C)cc12,103%
O=C(CNc1ccc(Oc2ccccc2)cc1)N1CCOCC1,46%
O=C(Nc1cccc2ccccc12)c1ccccc1,-6%[5.75 µM]
Cc1c2c(nc3c(C)cccc13)OC(C)C2 (centres undefined),20%
c1ccc(-c2cc(N3CCCCCC3)n[nH]2)cc1,30%
c1ccc2c(c1)nc(-c1ccncc1)n1nnnc21,-16%
COc1cc(-c2nc3ccccn3c2NCC2CCCO2)ccc1O (centres undefined),-9%
Cc1noc(C)c1COC(=O)CCCc1nc2ccccc2s1,56%
CCn1c(SCC#N)nc2c(c1=O)C1(CCCC1)Cc1ccccc1-2,8%

More compounds follow:
structure,AmpC nodet inh
CCOC(=O)c1ccc(NC(=O)C2C3C=CC(C3)C2C(=O)O)cc1 (centres undefined),-1%
O=C(CSc1nc2ccccc2c(=O)[nH]1)c1ccc(O)c(O)c1,-20%
CC(C)CNS(=O)(=O)c1ccc(C(=O)Nc2ccc3c(c2)OCCO3)cc1,9%
CC(=O)NC1C(=O)N(CCc2ccccc2)c2ccccc21 (centres undefined),43%
Cc1ccc(C)c(N2CCN(C(=O)COc3cc(=O)n(C)c4ccccc34)CC2)c1,121%
O=C(CS(=O)(=O)Cc1ccccc1)N1CCc2ccccc2C1,9%
COc1ccc(CCN(Cc2cc3cccc(C)c3[nH]c2=O)C(=O)N2CCCC2)cc1OC,100%
COC(=O)Cn1cnc2sc(C)c(S(=O)(=O)N3CCN(c4ccccc4OC)CC3)c2c1=O,84%
COc1ccccc1-c1nnc(SCC(=O)Nc2ccc(Cl)cc2Cl)o1,-24%
Cc1cc(C)n(/N=C/c2cccc(O)c2)c(=O)c1C(N)=O,-10%
COc1ccc(OC)c(NS(=O)(=O)c2cccs2)c1,-8%

These rows are one share of the data. The share of hits here may be higher or lower than overall.
